Bioassay records as filed in PubChem BioAssay.
TAR Tat displ: HIV-1 TAR-Tat binding disruption | hit rate 0.6% among 100,000 | HIV-1 TAR RNA, Tat peptide displacement FRET; hits give high values | z-score (concentration not given with the values) | AID 1259389;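 also: score is relative to mean and SD of negative controls; some compounds called inactive have numbers as strong as hits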
CDC25B CDK2 inh: human CDC25B-CDK2/CyclinA binding inhibition. hit rate 0.72% among 94,000. HTRF CDC25B-CDK2/CyclinA binding, anti-His/anti-Flag; hits give high values. z-score (test concentration not listed). P30305+P24941. AID 1259370;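 also: score is relative to mean and SD of negative controls; strong numbers were not always called active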
* = called active by the depositor; x = not tested or not shown.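 The calls were made as follows: active = z-score from 3 up in half or more of its runs; inactive = the rest.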

The first 15 entries, ahead of the listing:
SMILES	TAR Tat displ	CDC25B CDK2 inh
COc1ccc(Cl)cc1NC(=O)Cn1nc(C(F)(F)F)c2c1CCC2	0.04	0.26
O=C(NCC1CCCO1)C(=O)NCC(c1cccs1)S(=O)(=O)c1ccc(Cl)cc1 (stereo unspecified)	0.69	x
Cc1ccsc1CCNC(=O)CCS(=O)(=O)c1cc2c(cc1Cl)NC(=O)CO2	1.4	x
Fc1ccc(C2NCCc3c2sc2c3CCCC2)cc1 (stereo unspecified)	3	x
Cc1ncc(CO)c(CNc2ccc(F)cc2F)c1O	0.17	x
COc1cccc(OCCn2cc(C(=O)C3CC3)c3ccccc32)c1	-1.1	-0.73
Fc1ccc(-c2noc3ncnc(N(Cc4ccco4)CC4CCCO4)c23)cc1 (stereo unspecified)	0.07	x
CCOc1ccc(Nc2nc(-c3ccccn3)cs2)cc1	x	19*
CCC(=O)OCc1cc(=O)n2nc(C3CC3)sc2n1	-1.7	x
Cn1c(=O)n(C)c2cc(Nc3nc4ccc(Cl)cc4n4nnnc34)ccc21	0.17	-0.25
O=C(NCc1n[nH]c(=O)c2ccccc12)C(=O)N1CCCCC1	0.1	x
CCCN1CCN(S(=O)(=O)c2ccc(-c3cc(C)no3)s2)CC1	1.2	x
COc1ccc(-c2cc(-c3ccccc3)n3ncnc3n2)cc1	1.2	0.81
Cc1c(C(=O)N2CCCC2)oc2c1-c1nn(CC(=O)NCC3CCCO3)cc1CC2 (stereo unspecified)	1.1	x
O=C1CCCc2cc(S(=O)(=O)N3CCN(c4ccc(N5CCOCC5)nn4)CC3)ccc2N1	1.1	x

All compounds of this part (from the top)
SMILES	TAR Tat displ	CDC25B CDK2 inh
COc1ccc(Cl)cc1NC(=O)Cn1nc(C(F)(F)F)c2c1CCC2	0.04	0.26
O=C(NCC1CCCO1)C(=O)NCC(c1cccs1)S(=O)(=O)c1ccc(Cl)cc1 (stereo unspecified)	0.69	x
Cc1ccsc1CCNC(=O)CCS(=O)(=O)c1cc2c(cc1Cl)NC(=O)CO2	1.4	x
Fc1ccc(C2NCCc3c2sc2c3CCCC2)cc1 (stereo unspecified)	3	x
Cc1ncc(CO)c(CNc2ccc(F)cc2F)c1O	0.17	x
COc1cccc(OCCn2cc(C(=O)C3CC3)c3ccccc32)c1	-1.1	-0.73
Fc1ccc(-c2noc3ncnc(N(Cc4ccco4)CC4CCCO4)c23)cc1 (stereo unspecified)	0.07	x
CCOc1ccc(Nc2nc(-c3ccccn3)cs2)cc1	x	19*
CCC(=O)OCc1cc(=O)n2nc(C3CC3)sc2n1	-1.7	x
Cn1c(=O)n(C)c2cc(Nc3nc4ccc(Cl)cc4n4nnnc34)ccc21	0.17	-0.25
O=C(NCc1n[nH]c(=O)c2ccccc12)C(=O)N1CCCCC1	0.1	x
CCCN1CCN(S(=O)(=O)c2ccc(-c3cc(C)no3)s2)CC1	1.2	x
COc1ccc(-c2cc(-c3ccccc3)n3ncnc3n2)cc1	1.2	0.81
Cc1c(C(=O)N2CCCC2)oc2c1-c1nn(CC(=O)NCC3CCCO3)cc1CC2 (stereo unspecified)	1.1	x
O=C1CCCc2cc(S(=O)(=O)N3CCN(c4ccc(N5CCOCC5)nn4)CC3)ccc2N1	1.1	x
CCCNC(=O)C1CCN(S(=O)(=O)c2cc(-c3noc(CC)n3)cs2)CC1	3.1	x
CC1CCN(c2c(NCC3CCC(C(=O)N4CCCCC4)CC3)c(=O)c2=O)CC1 (stereo unspecified)	3.2	-2.1
CN(C(=O)c1cc2ccc3cccnc3c2[nH]1)c1ccccc1F	2	x
CCC12CN(S(=O)(=O)c3ccccc3)CC(CC)(CN(S(=O)(=O)c3ccccc3)C1)C2=O	x	-0.03
COc1ccc(-c2nc3c4c(C)c(C)n(C5CCCCC5)c4ncn3n2)cc1	1.1	-2
CC(C)CCSc1nc2cc3c(cc2c(=O)n1Cc1ccco1)OCO3	x	-1.2
COc1ccccc1N1CCn2c1nc1c2c(=O)n(CC(=O)O)c(=O)n1C	-0.31	-2.2
CCc1ccc(NS(=O)(=O)c2cc(-c3cc(C)[nH]n3)ccc2C)cc1	1.5	x
CCc1cccc(NS(=O)(=O)c2cc(-c3cc(C)no3)ccc2C)c1	0.44	x
COc1ccccc1N1CCN(c2c3c(nc4nncn24)CCC3)CC1	0.5	-0.87
N#Cc1nc(-c2ccc(F)cc2)oc1NCCN1CCOCC1	1.9	-0.35
O=C(CCS(=O)(=O)c1ccc2c(c1)CCN2C(=O)C1CC1)Nc1cccc(F)c1	0.23	x
COc1ccc(OC)c(-c2nnc(SCC(=O)NC3CCCCC3)o2)c1	2.9	-1.6
CC(=O)N1c2ccc(S(=O)(=O)N(C)CC(=O)NC3CCCCC3)cc2CC1C (stereo unspecified)	-0.52	x
CN(CC(=O)N1CCCCC1)c1nnc(N2CCCCC2=O)s1	2.1	x
CCC(Sc1nnc2c3ccccc3n(C)c2n1)C(=O)NC(C)c1ccccc1 (stereo unspecified)	-0.21	-3.2
O=C(Cn1ncn2cccc2c1=O)N1CCN(C2CCCCC2)CC1	1	-1.7
O=C(NNc1ncc(C(F)(F)F)cc1Cl)NC(=O)c1ccccc1Cl	x	-0.26
O=C(Cn1c(=O)oc2cc(S(=O)(=O)NC3CCCC3)ccc21)Nc1ccc(F)cc1F	-1.4	-0.29
CC(=O)N1c2ccc(S(=O)(=O)Nc3cccc4c3CCCC4)cc2CC1C (stereo unspecified)	1.4	x
O=S(=O)(c1ccccc1)N1N=C(c2ccccc2)CC1c1ccccc1F (stereo unspecified)	1.3	-0.8
CC1(C)Cc2nc3oc4c(N5CCNCC5)ncnc4c3cc2CO1	0.84	x
Cc1nn(CCCC(=O)NCCC(C)C)c(=O)c2nccn12	-1.1	-1.9
CCCS(=O)(=O)Nc1ccc2c(c1)N(S(=O)(=O)CC)CCC2	1.5	x
CCn1ccnc1C(O)c1ccc(C)cc1 (stereo unspecified)	0.22	-0.06
CCOC(=O)c1ccc(NC(=O)CS(=O)(=O)C(C)C)cc1	x	-1.3
C=CCn1c(O)c(C2=Nc3ccccc3SC(c3ccccc3OCC)C2)c(=O)[nH]c1=O (stereo unspecified)	1.7	-0.27
CC(C)N(C)C1CCN(S(=O)(=O)c2ccc3c(c2)C(C)(C)C(=O)N3C)CC1	1.3	x
Cn1nc(C(C)(C)C)c(NC(=O)c2sccc2Cl)c1C(C)(C)C	x	-1.6
O=C(CN1CCSc2ccccc21)N1CCCCC1	0.97	x
Cc1ccc(Oc2ncccc2C2=N/C(=C\N(C)C)C(=O)O2)cc1	x	-2.4
COC(=O)c1ccc(C(=O)N(CCCN(C)C)c2nc3c(F)cc(F)cc3s2)cc1	-0.01	x
Cc1cc(NC2CCCCC2)n2nc(-c3ccco3)nc2n1	-1.9	x
Cn1ncc2c(Nc3ccc(Cl)cc3)nc(NCCCO)nc21	-1.4	x
Cn1c(SCC(=O)Nc2ccc(Cl)cc2)nc2c(oc3ccccc32)c1=O	-0.84	-0.81
(next part)
SMILES	TAR Tat displ	CDC25B CDK2 inh
O=C(Oc1cc2oc(=O)c3c(c2cc1Cl)CCC3)c1ccco1	x	-4.6
O=S1(=O)N=C(Nc2ccncc2)c2ccccc21	1.7	-0.64
CN(C)CCCNCc1ccc2c(c1)OCO2	x	-2.2
CCC(C)NC(=O)CSc1nc2ccccc2c2nc(CCn3c(C)nc4ccccc43)nn12 (stereo unspecified)	-0.64	x
COCCn1c(SCc2cccc(F)c2)nnc1-c1c[nH]c2ccccc12	x	-0.87
CCCN(C)S(=O)(=O)C1CCS(=O)(=O)C1 (stereo unspecified)	2.1	-1.4
COc1ccc2c(c1)CC(NC(=O)NC(C)C)CO2 (stereo unspecified)	2.2	x
Cc1ccc(Nc2nc3ccccc3c3nncn23)cc1Cl	1.1	-0.48
COc1ccc(-c2noc(Cn3c(=O)[nH]c4cc5c(cc4c3=O)OCO5)n2)cc1	0.74	x
N#Cc1c2c(c(N3CCN(CCO)CC3)n3c1nc1ccccc13)CCCC2	-0.12	1.6
CCOC(=O)C(C)Sc1nnc(CSc2ncccn2)n1-c1ccc(F)cc1 (stereo unspecified)	0.01	-0.88
COCCNc1nn2nnnc2c2ccccc12	0.75	x
CSc1nc(/N=C/N(C)C)nn1CCC#N	x	-1.8
c1ccc(CCNc2nc(-c3ccccc3)nc3ccccc23)cc1	x	0
CC1=C(c2cccc(Cl)c2)S(=O)(=O)N=C1N1CCN(C)CC1	1.9	0.14
CCC1CCCCN1CCCNc1ncnc2onc(-c3cc(F)cc(F)c3)c12 (stereo unspecified)	0.36	x
O=c1c2ccccc2c2ccccc2c(=O)n1Cc1ccccn1	0.62	-0.82
CCOc1cc(/C=N/Nc2nc(-c3ccc(Br)cc3)cs2)ccc1O	x	-0.97
CCc1c(C)sc(NC(=O)COCc2cc(-c3cccs3)on2)c1C#N	-0.75	x
CC1(C)CCCC(C)(C)N1C(=O)c1noc2c1CCc1sccc1-2	-0.69	x
CNc1nc(NCc2ccccc2Cl)c2cnn(C)c2n1	1.9	x
Cc1ccc(-c2nc3ncccn3c2NCc2ccc(F)cc2)cc1C	0.14	x
CC(C)(C)n1ccc(-c2cc(F)cc(F)c2O)n1	x	-1.1
O=C(NC1CCN(C(=O)C2CCC2)CC1)C1CCCCC1	x	-1.4
COC(=O)c1ccc(CSc2nc3ccncc3n2Cc2cccc(F)c2)cc1	2.6	-1.9
CC(NS(=O)(=O)c1cc2c3c(c1)CC(=O)N3CCC2)c1ccccc1 (stereo unspecified)	2.4	x
COc1ccc(OC)c(-c2noc(Nc3cc(C)c(Cl)cc3OC)n2)c1	-0.21	x
Cc1ccc(NS(=O)(=O)c2cc3c4c(c2)CC(=O)N4CCC3)c(C)c1	0.98	x
Fc1ccccc1-c1noc(NCc2cccs2)n1	1.4	x
CCN1C(=O)Cc2cc(NS(C)(=O)=O)ccc21	1.1	x
CCC(C(=O)NC(C)C)n1sc2ccccc2c1=O (stereo unspecified)	2.7	-0.4
Nc1nnc(-c2ccccc2)s1	x	-1.5
N#Cc1c(Nc2ccccc2)[nH]c(=O)[nH]c1=O	x	-0.33
Cc1cc(Br)ccc1S(=O)(=O)Nc1c(-n2cnnc2)nn(C)c1C	-0.89	-2.7
CC1CCCN(c2c3c(nc4ccccc24)CCCC3)C1 (stereo unspecified)	x	-0.84
NC(=O)/C(=C\c1cccs1)c1ccsc1	x	-0.18
Clc1ccc(CN2CCN(CC3CC=CCC3)CC2)cc1 (stereo unspecified)	-0.2	-0.87
Cc1ccc(C2C(C#N)=C(N)Oc3n[nH]c(-c4ccccc4)c32)s1 (stereo unspecified)	1.4	-0.63
Cc1nn(C)c(=O)c2c(C)noc12	x	-1.7
CCOc1ccc(-c2cccc(NS(=O)(=O)CC)c2)nn1	0.21	x
NC(CC(=O)O)c1ccccc1 (stereo unspecified)	x	-0.39
C=CCN1Cc2c(sc3c2CCCC3)N(C(=O)c2ccccc2)C1	-0.34	-1.6
O=C(Oc1ccc2oc(=O)sc2c1)c1ccccc1Cl	0	-2.1
C=CCOC(=O)C1=C(C)N=C2SCCC(=O)N2C1c1cccc(F)c1 (stereo unspecified)	0.54	-0.02
CC1=CC(=O)C(CCC2=CC(=O)C(C)=CC2=O)=CC1=O	x	-0.29
Cc1nnc(SCC(=O)Nc2ccc(F)cc2F)s1	0.73	-2.3
Cc1cc2c(cc3c(SCC(=O)N(C)c4ccccc4)nnc(C)n32)o1	2.3	x
Cc1cc2n(n1)CCC(=O)N2CCCC(=O)NCCCN1CCC(N2CCCCC2)CC1	1.1	x
CCC1(C)CC(=O)NC1=O (stereo unspecified)	1.3	-1.7
O=C(CCCn1c(=O)[nH]c2ccsc2c1=O)N1CCN(c2ccccc2)CC1	x	0.58
The listing continues.
SMILES	TAR Tat displ	CDC25B CDK2 inh
Cc1onc(-c2ccccc2Cl)c1NC(=O)O/N=C(\N)c1ccc(Cl)cc1	x	-0.81
COc1c(Cl)cc(Cl)c(OC)c1C(=O)O	x	0.1
CC1CCN(C(=O)Cn2cnc3c(sc4nc5c(cc43)COC(C)(C)C5)c2=O)CC1	-0.94	x
CCN(CC)S(=O)(=O)c1ccc2c(c1)nnn2CCCC(=O)Nc1cc(C)on1	-0.05	x
O=C1CC(c2ccccc2Cl)CC2=C1C(c1ccc(O)cc1)Nc1ccccc1N2 (stereo unspecified)	x	-0.69
Cc1ccc(-c2cc(C(=O)O)c3c(-c4ccccc4)[nH]nc3n2)cc1	0.86	x
Cc1csc2nc(CNS(=O)(=O)c3ccc(-c4ccccc4)cc3)cn12	0.05	x
Cc1ccc(-c2cnc(C3CC3)o2)cc1S(=O)(=O)Nc1ccc(C(C)C)cc1	1.2	x
CS(=O)(=O)CCC(C(=O)Nc1ccc(Br)cc1F)N1Cc2ccccc2C1=O (stereo unspecified)	1.5	x
CSc1nn(CCc2ccncc2)c(=S)s1	x	-2.3
O=C(CSCc1cnn(-c2ccccc2)c1-n1cccc1)Nc1ccccc1F	1.3	-3.9
CCC(C)NC(=O)Cn1nc(C)n2c(cc3cc(F)ccc32)c1=O (stereo unspecified)	-0.59	2.3
COc1ccc(-c2nc(Cc3c[nH]c4ccccc34)sc2C)cc1	1.4	-1.5
CCOCCCNC(=O)C(C)n1c2ccccc2c2nc(=O)cc(C)n21 (stereo unspecified)	-1.6	-1.5
c1ccc(CCc2nn3c(Cn4cnc5ccccc54)nnc3s2)cc1	1	-0.83
CC(=O)Oc1c(I)c(=O)n(C)c2ccccc12	x	-2.1
COc1ccc(-c2noc(CSc3nnc(-c4ccc5c(c4)OCCCO5)n3C)n2)cc1	0.33	x
NC(=O)C1(N2CCCCC2)CCN(C(=O)c2[nH]nc3c2CCc2ccccc2-3)CC1	0.15	x
CCn1c(C)c2c([n+]1CC)CC(C)(C)CC2=O	x	-1.3
CSc1nc(NCCOCCO)c(C#N)c(-c2ccccc2)n1	-0.53	-1.7
COCc1[nH]nc2c1C1(CCN(C(=O)c3ccccc3)CC1)C(C#N)=C(N)O2	1	-0.6
Cc1ccc(Nc2ncnc3c2cnn3C)cc1C	1	x
O=c1c(O)c(N2CCN(c3ccc(F)cc3)CC2)c1=O	-0.75	x
Oc1ccccc1-c1cncn1Cc1ccccc1	x	-2.5
CCCCCCn1c(SCCN2CCOCC2)nc2c1c(=O)[nH]c(=O)n2C	x	0.94
